Ran_FRET: RanGTP/importin-beta interaction disruptors – biochemical, CFP-Ran/YFP-importin-beta FRET, RCC1, cell-free, primary screen (AID 434961); inhibition, %; CFP-Ran/YFP-importin-beta FRET, cell-free; stronger effect = higher value; 7,700 compounds, 0.2% hits;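 active = more than half of the replicate wells above 15% inhibition; inconclusive = exactly half above it; inactive = fewer than half above it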;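 note: 0% = DMSO wells and 100% inhibition = RanGDP control wells on each plate; stock of unstated strength diluted about 400-fold; mean of two wells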
An asterisk follows results filed as active; ? = inconclusive.

The first 2 records, to show the layout:
SMILES Ran_FRET
Cc1noc(C)c1NC(=O)N(C)C[C@H]1Oc2ccc(NS(=O)(=O)c3cccs3)cc2C(=O)N([C@@H](C)CO)C[C@@H]1C 5.2
COc1ccc(CN(C)C[C@@H]2Oc3ccc(NC(=O)C4CC4)cc3C(=O)N([C@H](C)CO)C[C@H]2C)cc1 4.5

The listing, from the first entry:
SMILES Ran_FRET
Cc1noc(C)c1NC(=O)N(C)C[C@H]1Oc2ccc(NS(=O)(=O)c3cccs3)cc2C(=O)N([C@@H](C)CO)C[C@@H]1C 5.2
COc1ccc(CN(C)C[C@@H]2Oc3ccc(NC(=O)C4CC4)cc3C(=O)N([C@H](C)CO)C[C@H]2C)cc1 4.5
C[C@@H]1CN([C@H](C)CO)C(=O)c2cc(NC(=O)Nc3ccc(F)cc3)ccc2O[C@@H]1CN(C)S(=O)(=O)c1cn(C)cn1 0.4
Cc1noc(C)c1NC(=O)N(C)C[C@@H]1Oc2ccc(NC(=O)Cc3ccccc3)cc2C(=O)N([C@@H](C)CO)C[C@@H]1C -0.6
C[C@H]1CN([C@@H](C)CO)C(=O)c2cc(NS(=O)(=O)c3cn(C)cn3)ccc2O[C@@H]1CN(C)S(=O)(=O)c1cn(C)cn1 0.0
Cc1noc(C)c1NC(=O)N(C)C[C@@H]1Oc2c(NC(=O)c3nc4ccccc4s3)cccc2C(=O)N([C@@H](C)CO)C[C@@H]1C -3.9
C[C@H](CO)N1C[C@H](C)[C@@H](CN(C)C(=O)Nc2ccc3c(c2)OCO3)Oc2ccc(NS(=O)(=O)c3cn(C)cn3)cc2C1=O -4.0
CC(C)NC(=O)N(C)C[C@@H]1OCCCC[C@H](C)Oc2ccc(NC(=O)CCCN(C)C)cc2C(=O)N([C@@H](C)CO)C[C@H]1C 2.2
CC(C)NC(=O)N(C)C[C@H]1OCCCC[C@@H](C)Oc2ccc(N(C)C)cc2C(=O)N([C@@H](C)CO)C[C@@H]1C -4.7
Cc1noc(C)c1NC(=O)N(C)C[C@H]1Oc2ccc(NC(=O)CCCN(C)C)cc2CC(=O)N([C@@H](C)CO)C[C@@H]1C 6.7
C[C@H]1CN([C@@H](C)CO)C(=O)c2cc(NS(C)(=O)=O)ccc2O[C@H]1CN(C)C(=O)Nc1ccc2c(c1)OCO2 3.3
C[C@H]1CN([C@@H](C)CO)C(=O)c2cc(NC(=O)c3ccncc3)ccc2O[C@@H]1CN(C)C(=O)NC1CCCCC1 -0.9
C[C@@H]1CCCCO[C@@H](CN(C)C(=O)c2ccccc2)[C@@H](C)CN([C@@H](C)CO)C(=O)c2cc(NC(=O)Nc3ccc4c(c3)OCO4)ccc2O1 1.6
CNC[C@H]1OCCCC[C@H](C)Oc2ccc(NC(=O)Nc3ccccc3)cc2C(=O)N([C@H](C)CO)C[C@@H]1C 1.2
C[C@H]1CN([C@@H](C)CO)C(=O)CCCn2cc(nn2)CO[C@H]1CN(C)C(=O)Cc1ccccc1 1.5
Cc1noc(C)c1S(=O)(=O)N(C)C[C@@H]1Oc2ccc(NC(=O)C3CCCCC3)cc2CC(=O)N([C@@H](C)CO)C[C@H]1C -1.2
C[C@H](CO)N1C[C@H](C)[C@@H](CN(C)C(=O)Nc2ccc(F)cc2)Oc2ccc(NS(C)(=O)=O)cc2C1=O 0.2
C[C@@H]1CN([C@H](C)CO)C(=O)Cc2cc(NC(=O)c3ccncc3)ccc2O[C@@H]1CN(C)C(=O)Nc1ccccc1 ?
C[C@H]1CN([C@@H](C)CO)C(=O)Cc2cc(NC(=O)C3CC3)ccc2O[C@@H]1CN(C)Cc1ccc2c(c1)OCO2 -1.1
C[C@H](CO)N1C[C@H](C)[C@H](CN(C)C(=O)C2CCCCC2)OCCCC[C@H](C)Oc2ccc(NC(=O)c3ccncc3)cc2C1=O 1.0
COc1ccc(CN(C)C[C@@H]2Oc3c(NC(=O)NC(C)C)cccc3C(=O)N([C@@H](C)CO)C[C@@H]2C)cc1 -2.1
CC(C)NC(=O)N(C)C[C@H]1Oc2ccc(NC(=O)C3CC3)cc2C(=O)N([C@H](C)CO)C[C@@H]1C -6.7
C[C@@H]1CN([C@@H](C)CO)C(=O)c2cc(NC(=O)c3ccncc3)ccc2O[C@@H](C)CCCCO[C@H]1CN(C)C(=O)CCCN(C)C -2.8
C[C@@H]1CCCCO[C@@H](CN(C)C(=O)CCCN(C)C)[C@H](C)CN([C@H](C)CO)C(=O)c2cc(NC(=O)CCCN(C)C)ccc2O1 -6.5
C[C@H]1CCCCO[C@H](CN(C)C(=O)CCCN(C)C)[C@@H](C)CN([C@@H](C)CO)C(=O)c2cc(N(C)C)ccc2O1 -1.8
C[C@H](CO)N1C[C@H](C)[C@@H](CN(C)Cc2ccc(Cl)c(Cl)c2)Oc2ccc(NC(=O)Cn3cnnn3)cc2C1=O -3.3
CNC[C@@H]1Oc2c(NC(=O)Nc3ccccc3)cccc2C(=O)N([C@@H](C)CO)C[C@@H]1C -3.2
C[C@@H]1CN([C@@H](C)CO)C(=O)c2cc(NC(=O)Cc3cn(C)c4ccccc34)ccc2O[C@H]1CN(C)C(=O)Nc1ccc(F)cc1 -0.9
C[C@H]1CCCCO[C@@H](CN(C)Cc2ccncc2)[C@@H](C)CN([C@@H](C)CO)C(=O)c2cc(NC(=O)Cc3ccccc3)ccc2O1 6.5
CNC[C@H]1Oc2c(NS(=O)(=O)c3cccs3)cccc2C(=O)N([C@@H](C)CO)C[C@H]1C 2.5
C[C@@H]1CCCCO[C@@H](CN(C)S(=O)(=O)c2ccccc2)[C@H](C)CN([C@@H](C)CO)C(=O)c2cc(NC(=O)CCCN(C)C)ccc2O1 3.0
C[C@@H]1CCCCO[C@H](CN(C)C(=O)c2ccncc2)[C@@H](C)CN([C@@H](C)CO)C(=O)c2cc(N(C)C)ccc2O1 -3.6
C[C@H]1CN([C@@H](C)CO)C(=O)c2cccc(NS(=O)(=O)c3ccc(Cl)cc3)c2O[C@@H]1CN(C)C(=O)Nc1ccc(C(F)(F)F)cc1 3.5
C[C@@H]1CN([C@@H](C)CO)C(=O)c2cccc(NC(=O)C3CC3)c2O[C@H]1CN(C)C 0.6
C[C@H](CO)N1C[C@H](C)[C@H](CN(C)C(=O)Nc2ccc(F)cc2)Oc2ncc(-c3ccc(F)cc3)cc2C1=O -0.2
COc1ccc(CN(C)C[C@@H]2Oc3ccc(NC(=O)C4CC4)cc3CC(=O)N([C@@H](C)CO)C[C@H]2C)cc1 -3.0
Cc1noc(C)c1NC(=O)N(C)C[C@@H]1Oc2ccc(NC(=O)NC3CCCCC3)cc2C(=O)N([C@@H](C)CO)C[C@@H]1C ?
C[C@H](CO)N1C[C@H](C)[C@H](CN(C)Cc2ccncc2)Oc2c(NC(=O)Nc3ccc(C(F)(F)F)cc3)cccc2C1=O 6.7
C[C@@H]1CN([C@H](C)CO)C(=O)Cc2cc(NS(=O)(=O)c3ccccc3)ccc2O[C@@H]1CN(C)C(=O)Nc1cccc2ccccc12 ?
C[C@@H]1CN([C@@H](C)CO)C(=O)c2cccc(N(C)C)c2O[C@H]1CN(C)C(=O)Nc1cccc2ccccc12 2.3

Ordered by molar mass (lowest first): part of the list above
SMILES Ran_FRET
C[C@@H]1CN([C@@H](C)CO)C(=O)c2cccc(NC(=O)C3CC3)c2O[C@H]1CN(C)C 0.6
COc1ccc(CN(C)C[C@@H]2Oc3ccc(NC(=O)C4CC4)cc3CC(=O)N([C@@H](C)CO)C[C@H]2C)cc1 -3.0
Cc1noc(C)c1NC(=O)N(C)C[C@@H]1Oc2ccc(NC(=O)NC3CCCCC3)cc2C(=O)N([C@@H](C)CO)C[C@@H]1C ?
C[C@H]1CN([C@@H](C)CO)C(=O)c2cccc(NS(=O)(=O)c3ccc(Cl)cc3)c2O[C@@H]1CN(C)C(=O)Nc1ccc(C(F)(F)F)cc1 3.5

The results go on.
SMILES Ran_FRET
C[C@H](CO)N1C[C@H](C)[C@H](CN(C)S(=O)(=O)c2cn(C)cn2)Oc2ncc(/C=C/c3ccccc3)cc2C1=O -1.9
C[C@H]1CN([C@@H](C)CO)C(=O)c2cccc(NC(=O)C3CCOCC3)c2O[C@H]1CN(C)Cc1ccncc1 1.4
C[C@H](CO)N1C[C@H](C)[C@H](CN(C)C(=O)NC2CCCCC2)Oc2ccc(NS(=O)(=O)c3cccs3)cc2C1=O -0.1
C[C@@H]1CCCCO[C@@H](CN(C)C(=O)Nc2ccccc2)[C@@H](C)CN([C@H](C)CO)C(=O)c2cc(NS(C)(=O)=O)ccc2O1 0.5
C[C@@H]1CN([C@@H](C)CO)C(=O)c2cc(NS(C)(=O)=O)ccc2O[C@@H](C)CCCCO[C@@H]1CN(C)C(=O)Nc1ccccc1 3.0
C[C@@H]1CN([C@@H](C)CO)C(=O)c2cc(NC(=O)NC3CCCCC3)ccc2O[C@H]1CN(C)S(=O)(=O)c1ccccc1 0.8
C[C@@H]1CN([C@@H](C)CO)C(=O)Cc2cc(NC(=O)Cn3cnnn3)ccc2O[C@@H]1CN(C)C(=O)Nc1cccc2ccccc12 2.4
C[C@H](CO)N1C[C@H](C)[C@@H](CN(C)C(=O)Nc2cccc3ccccc23)Oc2ccc(NC(=O)CCC(F)(F)F)cc2CC1=O 0.1
C[C@@H]1CN([C@H](C)CO)C(=O)c2cc(NC(=O)Cc3ccccc3)ccc2O[C@@H](C)CCCCO[C@H]1CN(C)C -2.6
COc1ccc(CN(C)C[C@@H]2Oc3c(NS(C)(=O)=O)cccc3C(=O)N([C@@H](C)CO)C[C@@H]2C)cc1 -5.6
COc1ccc(S(=O)(=O)N(C)C[C@@H]2Oc3c(NC(=O)c4nc5ccccc5s4)cccc3C(=O)N([C@H](C)CO)C[C@H]2C)cc1 5.6
C[C@H](CO)N1C[C@H](C)[C@@H](CN(C)Cc2ccncc2)Oc2ccc(NC(=O)CCCN(C)C)cc2C1=O 1.6
C[C@@H]1CCCCO[C@@H](CN(C)S(=O)(=O)c2cccs2)[C@@H](C)CN([C@@H](C)CO)C(=O)c2cc(NC(=O)Cc3ccccc3)ccc2O1 1.1
Cc1noc(C)c1NC(=O)N(C)C[C@@H]1OCCCC[C@@H](C)Oc2ccc(NS(=O)(=O)c3cn(C)cn3)cc2C(=O)N([C@H](C)CO)C[C@H]1C 1.2
C[C@@H]1CN([C@H](C)CO)C(=O)c2cccc(NS(C)(=O)=O)c2O[C@H]1CN(C)Cc1ccncc1 0.0
COc1ccc(S(=O)(=O)N(C)C[C@@H]2Oc3ccc(NC(=O)Cc4ccccc4)cc3CC(=O)N([C@@H](C)CO)C[C@H]2C)cc1 ?
C[C@@H]1CN([C@H](C)CO)C(=O)c2cc(NC(=O)NC3CCCCC3)ccc2O[C@@H]1CN(C)C(=O)Nc1cccc2ccccc12 1.4
CNC[C@H]1Oc2c(cccc2N(C)C)C(=O)N([C@H](C)CO)C[C@H]1C -1.2
C[C@H]1CCCCO[C@H](CN(C)Cc2ccccc2)[C@@H](C)CN([C@@H](C)CO)C(=O)c2cc(N(C)C)ccc2O1 -4.6
C[C@@H]1CCCCO[C@H](CN(C)C)[C@H](C)CN([C@H](C)CO)C(=O)c2cc(NC(=O)Nc3ccccc3)ccc2O1 -3.0
COc1ccc(CN(C)C[C@@H]2Oc3ccc(NC(=O)Nc4ccc5c(c4)OCO5)cc3CC(=O)N([C@@H](C)CO)C[C@@H]2C)cc1 ?
C[C@@H]1CN([C@H](C)CO)C(=O)c2cc(NC(=O)Nc3cccc4ccccc34)ccc2O[C@H]1CN(C)C 1.7
C[C@@H]1CN([C@@H](C)CO)C(=O)c2cc(NC(=O)Nc3ccccc3)ccc2O[C@@H](C)CCCCO[C@H]1CN(C)C(=O)C1CCCCC1 -0.5
COC(=O)N(C)C[C@@H]1OCc2cn(nn2)CCCC(=O)N([C@@H](C)CO)C[C@@H]1C 2.6
Cc1noc(C)c1S(=O)(=O)N(C)C[C@@H]1OCCCC[C@@H](C)Oc2ccc(NS(C)(=O)=O)cc2C(=O)N([C@H](C)CO)C[C@@H]1C -5.4
C[C@H](CO)N1C[C@H](C)[C@@H](CN(C)Cc2ccncc2)Oc2ccc(NC(=O)Cc3ccccc3)cc2CC1=O -0.6
C[C@@H]1CN([C@H](C)CO)C(=O)c2cc(N(C)C)ccc2O[C@@H](C)CCCCO[C@H]1CN(C)C(=O)C1CCCCC1 1.4
C[C@H]1CN([C@@H](C)CO)C(=O)c2cc(NS(=O)(=O)c3cccs3)ccc2O[C@H]1CN(C)C(=O)Nc1ccc2c(c1)OCO2 -0.7
C[C@@H]1CCCCO[C@@H](CN(C)C(=O)CCC(F)(F)F)[C@@H](C)CN([C@H](C)CO)C(=O)c2cc(NS(=O)(=O)c3cccs3)ccc2O1 -4.8
C[C@@H]1CN([C@H](C)CO)C(=O)c2cc(NC(=O)Cn3cnnn3)ccc2O[C@H]1CN(C)Cc1ccc(Cl)c(Cl)c1 -1.9
C[C@@H]1CN([C@H](C)CO)C(=O)Cc2cc(NC(=O)C3CC3)ccc2O[C@@H]1CN(C)S(=O)(=O)c1cccs1 5.5
COc1ccc(S(=O)(=O)N(C)C[C@@H]2Oc3ccc(NS(=O)(=O)c4cn(C)cn4)cc3CC(=O)N([C@@H](C)CO)C[C@@H]2C)cc1 3.6
C[C@H]1CN([C@@H](C)CO)C(=O)Cc2cc(NC(=O)NC3CCCCC3)ccc2O[C@@H]1CN(C)Cc1ccccc1 -1.0
C[C@@H]1CCCCO[C@H](CN(C)C(=O)CCCN(C)C)[C@@H](C)CN([C@H](C)CO)C(=O)c2cc(NC(=O)CCCN(C)C)ccc2O1 2.5
Cc1noc(C)c1NC(=O)Nc1ccc2c(c1)C(=O)N([C@@H](C)CO)C[C@@H](C)[C@@H](CN(C)C(=O)C1CCCCC1)OCCCC[C@@H](C)O2 ?
C[C@H]1CN([C@@H](C)CO)C(=O)CCCn2nncc2CO[C@H]1CN(C)Cc1ccncc1 0.2
COc1ccc(S(=O)(=O)Nc2ccc3c(c2)CC(=O)N([C@@H](C)CO)C[C@H](C)[C@H](CN(C)S(=O)(=O)c2cn(C)cn2)O3)cc1 ?
C[C@@H]1CCCCO[C@@H](CN(C)C(=O)Nc2ccccc2)[C@@H](C)CN([C@@H](C)CO)C(=O)c2cc(NC(=O)Nc3ccccc3)ccc2O1 -0.1
C[C@@H]1CN([C@H](C)CO)C(=O)CCCn2cc(nn2)CO[C@H]1CN(C)S(=O)(=O)c1ccc2c(c1)OCCCO2 -1.2

Source: PubChem BioAssay (Broad Institute)

This is a subset; count on the stated rates, not on these rows.
